# Arbovirus inh – antivirals against arbovirus infection, primary screen, cell-based, full library, 10K replicate subset. inhibition, % at 10 µM. AID 1251, 2008. arbovirus infection cell-based antiviral screen. 0.37% of 200,000 active;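 active = inhibition from about 30%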;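 note: bluetongue infection of BSR cells; cell survival read as ATP light after 72 h; 0% = infected wells without compound and 100% = uninfected wells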
# RecA intein inh – Mtb RecA intein splicing inhibitors, primary screen, biochemical, fluorescence, HTS; cell-free RecA intein splicing; inhibition, %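 (about 9 µM by stock and volumes)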; 0.75% of 290,000 active; in the data active = inhibition above about 30%; inconclusive = no clear call, values can overlap the other calls;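 note: 0% = vehicle wells and 100% = reference inhibitor control wells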
# Target sequence (P9WHJ3 whole entry, looked up): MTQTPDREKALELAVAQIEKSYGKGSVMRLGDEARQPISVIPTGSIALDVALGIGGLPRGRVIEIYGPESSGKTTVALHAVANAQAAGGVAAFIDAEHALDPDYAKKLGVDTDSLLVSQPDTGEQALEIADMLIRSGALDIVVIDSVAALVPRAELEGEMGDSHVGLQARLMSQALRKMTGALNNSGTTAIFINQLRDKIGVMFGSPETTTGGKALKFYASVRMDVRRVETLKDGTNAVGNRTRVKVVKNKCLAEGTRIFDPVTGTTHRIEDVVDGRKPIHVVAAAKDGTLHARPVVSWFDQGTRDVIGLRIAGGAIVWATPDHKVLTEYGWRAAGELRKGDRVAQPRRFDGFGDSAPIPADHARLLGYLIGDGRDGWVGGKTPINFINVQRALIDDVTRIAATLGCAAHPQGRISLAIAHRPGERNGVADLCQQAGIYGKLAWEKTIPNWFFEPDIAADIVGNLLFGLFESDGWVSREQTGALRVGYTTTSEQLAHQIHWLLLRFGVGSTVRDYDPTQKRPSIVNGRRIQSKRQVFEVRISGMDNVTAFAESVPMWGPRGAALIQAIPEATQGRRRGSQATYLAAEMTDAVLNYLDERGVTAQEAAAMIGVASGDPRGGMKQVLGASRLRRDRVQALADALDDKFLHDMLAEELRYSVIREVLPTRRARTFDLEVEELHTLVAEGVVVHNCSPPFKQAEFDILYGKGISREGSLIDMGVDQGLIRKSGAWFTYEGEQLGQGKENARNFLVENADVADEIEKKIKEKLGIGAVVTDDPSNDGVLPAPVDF
# Mtb betalactam – beta-lactam sensitization of Mtb H37Rv, H37Rv; AID 434955, 2010; M. tuberculosis H37Rv growth with meropenem, percent inhibition; hits of this screen are not shown here; 0.27% of 330,000 active; inhibition, % at 25 µM;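 active = about 74% or more and at least 40 points above the plate without the antibiotic, then above 30% in a dose series; inconclusive = first-round hits that could not be retested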;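 note: growth measured after seven days incubation then overnight dye step; 0% = bacteria only wells and 100% = bacteria with antibiotic; twin plates without the antibiotic show which effects depend on it; some results filed as inactive read as strong as hits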
# Mtb growth – M. tuberculosis H37Rv growth inhibitors, H37Rv strain (AID 1626). 0.95% of 220,000 active. inhibition, % at 10 µM; hits with a dose series show IC50 in µM. M. tuberculosis H37Rv growth inhibition; higher % means a stronger effect;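 active = confirmed in a dose series; inconclusive = inhibition above 80% but not taken into the dose series; inactive = below 80% or under 30% at every dose of the series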;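 note: bacteria incubated seven days before Alamar blue readout; 0% = bacteria only wells and 100% = bacteria with antibiotic wells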
# YopH PTP inh – YopH tyrosine phosphatase inhibitors, primary screen, biochemical, fluorescence Ex485/Em525; YopH tyrosine phosphatase [Yersinia enterocolitica]; inhibition, %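 (about 10 µM by stock and volumes)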; 0.16% of 140,000 active;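 active = inhibition of 50% or more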;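 note: controls were vehicle for no effect and minimum signal wells for full effect; inactives centre near -20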
# Arbovirus inh repeat – also measured in Arbovirus inh; calls as there; inhibition, %; measured here: 10K subset replicate screen; many hits read low in the repeat;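 first of two repeat runs on a subset; 0% = infected and 100% = uninfected wells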
# * marks the source's active call; other numbers are inactive results; ? = inconclusive; . = no result given. Not all compounds are listed; rates above refer to the full screens.
# Start of the data: the first 15 records, to show the layout:
SMILES,Arbovirus inh,RecA intein inh,Mtb betalactam,Mtb growth,YopH PTP inh,others
COc1ccc(-c2nn(-c3ccccc3)cc2CO)cc1,4,0.9,52,5%,-16,
Cc1cccc(-c2nc(C)cc(=O)[nH]2)c1,.,0.7,-3,-9%,.,
COc1ccc(CCNC(=O)c2cc(=O)c3cc(C)ccc3o2)cc1OC,.,-4.8,-9,.,.,
CC(C)(C)C1COc2ccccc2N1C(=O)c1ccccc1Cl (centres undefined),.,-1.1,-7,.,.,
O=C(CSc1nncn1-c1ccccc1)Nc1cccc(S(=O)(=O)N2CCCCC2)c1,-3,-2.0,-2,-11%,-31,
CSc1ccccc1NC(=O)c1cc(-c2ccco2)on1,.,-2.5,6,.,.,
COc1ccccc1-c1cc(C(=O)N/N=C/C=C/c2ccccc2[N+](=O)[O-])c2ccccc2n1,-27,6.4,87,15%,-13,
COc1ccc(Nc2ccc(Cl)nn2)cc1,.,-1.6,-8,.,.,
CCC(=O)Nc1cccc(SC)c1,-3,3.3,31,71%,-20,
CC(C)Cc1oc(C(=O)O)cc1CN,5,0.9,1,-3%,-10,
COc1cccc(NC(=O)CN2C(=O)CSc3ccc(S(=O)(=O)N4CCCCC4)cc32)c1,.,1.0,-5,.,.,
CCCC1=NN(C(=O)Cc2ccc([N+](=O)[O-])cc2)C(O)(C(F)(F)F)C1 (centres undefined),10,-1.1,0,4%,.,
Cc1ccnc(SCc2cc(=O)c(OC(=O)c3ccc(S(=O)(=O)N4CCCC4)cc3)co2)n1,-2,-0.6,-1,-7%,-23,
CC(Cc1ccccc1)C(=O)NCc1nc2ccccc2s1 (centres undefined),7,0.1,-4,-1%,-29,
COc1ccc(S(=O)(=O)Nc2cc(Sc3ncn[nH]3)c(O)c3ccccc23)cc1,-41,.,.,.,1,

# Main list, from the start:
SMILES,Arbovirus inh,RecA intein inh,Mtb betalactam,Mtb growth,YopH PTP inh,others
COc1ccc(-c2nn(-c3ccccc3)cc2CO)cc1,4,0.9,52,5%,-16,
Cc1cccc(-c2nc(C)cc(=O)[nH]2)c1,.,0.7,-3,-9%,.,
COc1ccc(CCNC(=O)c2cc(=O)c3cc(C)ccc3o2)cc1OC,.,-4.8,-9,.,.,
CC(C)(C)C1COc2ccccc2N1C(=O)c1ccccc1Cl (centres undefined),.,-1.1,-7,.,.,
O=C(CSc1nncn1-c1ccccc1)Nc1cccc(S(=O)(=O)N2CCCCC2)c1,-3,-2.0,-2,-11%,-31,
CSc1ccccc1NC(=O)c1cc(-c2ccco2)on1,.,-2.5,6,.,.,
COc1ccccc1-c1cc(C(=O)N/N=C/C=C/c2ccccc2[N+](=O)[O-])c2ccccc2n1,-27,6.4,87,15%,-13,
COc1ccc(Nc2ccc(Cl)nn2)cc1,.,-1.6,-8,.,.,
CCC(=O)Nc1cccc(SC)c1,-3,3.3,31,71%,-20,
CC(C)Cc1oc(C(=O)O)cc1CN,5,0.9,1,-3%,-10,
COc1cccc(NC(=O)CN2C(=O)CSc3ccc(S(=O)(=O)N4CCCCC4)cc32)c1,.,1.0,-5,.,.,
CCCC1=NN(C(=O)Cc2ccc([N+](=O)[O-])cc2)C(O)(C(F)(F)F)C1 (centres undefined),10,-1.1,0,4%,.,
Cc1ccnc(SCc2cc(=O)c(OC(=O)c3ccc(S(=O)(=O)N4CCCC4)cc3)co2)n1,-2,-0.6,-1,-7%,-23,
CC(Cc1ccccc1)C(=O)NCc1nc2ccccc2s1 (centres undefined),7,0.1,-4,-1%,-29,
COc1ccc(S(=O)(=O)Nc2cc(Sc3ncn[nH]3)c(O)c3ccccc23)cc1,-41,.,.,.,1,
CC1CN(S(=O)(=O)c2cccc(C(=O)N(Cc3nnc(-c4ccccc4Cl)o3)C3CC3)c2)CC(C)O1 (centres undefined),.,3.7,-7,.,.,
COc1ccc(-c2csc(-n3ncc(-c4ccccn4)c3N)n2)cc1,-23,-2.1,3,-3%,.,
COc1ccc(C2c3c(oc4ccc(C)cc4c3=O)C(=O)N2c2cc(C)ccn2)cc1OC (centres undefined),3,.,.,10%,-3,
CCN1CCN(CCNC(=O)CS(=O)(=O)Cc2nc(-c3ccc(C)cc3)oc2C)CC1,4,4.6,5,-3%,.,Arbovirus inh repeat=0
O=c1c([N+](=O)[O-])c(N2CCCCC2)c2ccccc2n1-c1ccccc1,-4,.,6,-7%,-5,
COc1ccc(C2CC(c3c(O)cc(C)oc3=O)=NCCS2)c(OC)c1 (centres undefined),-26,-4.9,-5,-11%,-26,
Fc1ccc(NC(=S)N2CCN(c3ncccn3)CC2)cc1,7,0.0,-11,-2%,.,
Cc1ccccc1NC(=O)C(C)O/N=C/c1cccc([N+](=O)[O-])c1 (centres undefined),1,1.1,-5,-10%,-6,
CCOC(=O)C1C(=O)NC(N2CCCCC2)=NC1C(C)C (centres undefined),0,-1.0,0,-10%,-31,
Cc1ccccc1OCC(O)CNC1CCCC1 (centres undefined),.,-3.0,-8,.,.,
# Next section
SMILES,Arbovirus inh,RecA intein inh,Mtb betalactam,Mtb growth,YopH PTP inh,others
Cc1cccc(C)c1NC(=O)COC(=O)C1CC(=O)N(Cc2ccccc2)C1 (centres undefined),2,-2.7,-6,4%,.,
COc1cc(/C=C(\C#N)c2nc3ccccc3[nH]2)ccc1O,.,3.4,4,.,.,
O=C(C1CCN(S(=O)(=O)c2cccs2)CC1)N1CCCCC1,.,3.3,-7,.,.,
O=C(CSc1nc2ccccc2[nH]1)N1c2ccccc2Sc2ccccc21,-10,5.2,97,17µM*,29,
COC(=O)c1c(NC(=O)Cc2cccs2)sc(C(=O)NC2CCCCC2)c1C,.,2.9,-8,-7%,-33,
Cc1cccc(OCC(=O)Nc2ccncc2)c1,.,-0.8,5,.,.,
O=C(/C=C/c1cccs1)N1CCOCC1,3,-7.2,-6,4%,-10,
COc1cc([N+](=O)[O-])ccc1NC(=O)CCS(=O)(=O)c1ccc2c(c1)n(C)c(=O)c(=O)n2C,.,2.4,3,.,.,
CCOC(=O)CN1CC23C=CC(O2)C(C(=O)NCc2cccs2)C3C1=O (centres undefined),-1,-1.0,-2,-7%,-2,
O=C(Cc1cccc(Cl)c1)Nc1ccc(Br)cc1,-2,8.7,-2,2%,.,
CC1(C)CC(OC(=O)c2ccco2)CC(C)(C)N1O,-1,-3.4,5,2%,-34,
CC(=O)CCC1C2C(O)C(C(C)C)C(OC(=O)/C=C/c3ccccc3)CC12C (centres undefined),.,2.3,-10,0%,.,
Cc1cccc(NC(=O)c2ccccc2NC(=O)Cc2ccccc2)c1C,1,0.0,13,2%,-21,
Cc1cc(-c2ccccc2)cc(-c2ccccc2)[n+]1CCc1ccccc1,.,1.9,-16,.,.,
CCOC(=O)N/N=C/c1c(F)c(F)c(F)c(F)c1F,1,-1.6,3,-8%,-31,
C[C@H](NC(=O)c1nc[nH]c1C(=O)NCC(=O)OCc1ccccc1)C(=O)OCc1ccccc1,.,7.1,-9,.,.,
COCCNC(=O)c1ccc(N2CC3CC(C2)c2cccc(=O)n2C3)c(NC(=O)c2ccc(Br)o2)c1 (centres undefined),.,4.9,-9,.,.,
Cc1ccc(C(=O)N2CCN(C(=O)c3ccccc3)C2c2ccc(N(C)C)cc2)cc1 (centres undefined),-1,1.2,3,9%,-23,
CCN(CC)CCNc1cc(C)nc2c1C(=O)C(=O)C=C2N1CCCCC1,-39,-4.9,83,64%,.,
O=C(c1cccs1)N1CCN(c2cc(Cl)ccc2Cl)CC1,.,14,-12,.,.,
O=C(c1ccccc1)N1CCN(CC#CC2(O)CCCCC2)CC1,10,-0.7,3,-1%,-29,
S=c1[nH]c(-c2ccccc2)cn1/N=C/c1cccc2ccccc12,-14,6.0,88,73%,.,
COc1ccccc1N1CCN(CC(=O)c2c(C)[nH]c3ccccc23)CC1,1,1.6,1,-10%,-26,
CCC(C(=O)Nc1ccsc1C(=O)OC)c1ccccc1 (centres undefined),-1,11,45,8%,.,
C=CCSc1nc2sc3c(c2c(=O)[nH]1)CC(C)(CC)OC3 (centres undefined),.,-1.0,1,.,.,
# Following part:
SMILES,Arbovirus inh,RecA intein inh,Mtb betalactam,Mtb growth,YopH PTP inh,others
Cc1cc(OC(C)C(=O)N2CCN(c3ccc(F)cc3)CC2)c2c(C)cc(=O)oc2c1 (centres undefined),.,-0.7,1,.,.,
CC1CCCCN1C(=O)Cn1c(=O)oc2cc(S(=O)(=O)N3CCCCC3)ccc21 (centres undefined),.,-1.2,-1,.,.,
CC1CCN(S(=O)(=O)c2ccc3c(c2)N(C)C(=O)CC(=O)N3C)CC1,.,-0.4,?,.,.,
COc1cc(CN2CCN(Cc3c[nH]c4ccccc34)CC2CCO)cc(OC)c1 (centres undefined),.,-0.4,3,.,.,
O=S(=O)(NCCN1CCOCC1)c1ccc(Cl)c(Cl)c1,.,-1.4,0,.,.,
CC1(C)C(=O)OC(c2cccs2)C(C)(C)C1=O (centres undefined),7,1.9,4,6%,-26,
C#CCOCCOCCOCCNc1nc(N2CCN(C(=O)[C@H]([C@@H](C)O)n3cc(CCCCN)nn3)CC2)nc(N2CCN(C(=O)[C@H]([C@@H](C)CC)n3cc(CCCN=C(N)N)nn3)CC2)n1,1,-2.0,-6,-6%,-10,
CCn1c2ccccc2c2cc(NC(=O)CSc3nnc(-c4ccc(OC)c(OC)c4)n3N)ccc21,-2,6.9,35,-1%,-4,
CN1CCN(S(=O)(=O)c2ccc(Br)c3ccccc23)CC1,.,1.6,-27,.,.,
O=C(O)CCCSc1nccn1-c1ccccc1,1,-2.5,-2,0%,.,
Cc1ccc(CN2CCN(Cc3cccc(OCCO)c3)CC2CCO)o1 (centres undefined),8,-0.3,-3,11%,.,
CC(=O)NC(C(=O)c1ccccc1)N1CCCCC1 (centres undefined),.,0.5,4,.,.,
CC1CCN(C(=S)NC(=O)c2ccccc2Br)CC1,.,-3.2,-10,.,.,
COc1ccc(N2CCN(C(=O)c3cn(C)c4ccc(S(=O)(=O)N5CCOCC5)cc4c3=O)CC2)cc1,.,-5.0,4,.,.,
COCCN1Cc2cc(=O)n3c([nH]c4ccccc43)c2C1=N,-1,-5.0,-2,-1%,.,
CC1CC1C(=O)Nc1nc(-c2ccc(Cl)s2)cs1 (centres undefined),44*,-0.4,8,9%,.,
Oc1ccccc1-c1nnc2n1CCCCC2,.,0.6,-5,.,.,
O=C(Nc1nnc(SCc2c(Cl)cccc2Cl)s1)c1cccc([N+](=O)[O-])c1,.,-3.3,-9,1%,.,
CS(=O)(=O)N(CCc1ccccc1)CC(=O)NCc1ccco1,1,2.3,-8,4%,-26,
Cc1ccccc1-n1c(O)cc(=O)[nH]c1=S,5,.,-5,0%,.,
CCOC(=O)CN1C(=N)N(c2nc(NC(C)C)nc(NC(C)C)n2)CC1=O,7,-1.3,-7,-12%,-11,
O=C(N/N=C/c1cc2c(cc1Br)OCO2)C1COc2ccccc2O1 (centres undefined),-2,2.6,2,5%,.,
O=C(CN1CCN(Cc2cccc(F)c2)CC1)Nc1ccccc1F,.,0.8,4,.,.,
COCCSc1ccccc1C(=O)NCCc1ccccc1,-6,0.3,2,8%,.,
COc1ccc(C)cc1NC(=O)c1ccc(NS(=O)(=O)c2cccs2)cc1,.,3.2,-1,.,.,
# Carrying on:
SMILES,Arbovirus inh,RecA intein inh,Mtb betalactam,Mtb growth,YopH PTP inh,others
Cc1nc2ccccc2c(C)c1CC(=O)OC(C)C(=O)NC1(C#N)CCCCC1 (centres undefined),.,-0.8,3,.,.,
CCOC(=O)C1=C(COc2ccccc2)NC(=O)NC1c1ccc2ccccc2c1 (centres undefined),.,-0.8,1,-8%,.,
O=S(=O)(NCc1cccnc1)c1ccc(Cl)c(Cl)c1,1,.,5,0%,-23,Arbovirus inh repeat=1
O=C(CSC(=S)N1CCOCC1)Nc1nc(-c2ccccc2)c(-c2ccccc2)o1,-22,-2.7,87,10%,-33,
Cc1ccc(N2CC(C(=O)NC3CCC(C)CC3)CC2=O)cc1 (centres undefined),.,-0.3,2,.,.,
O=C(Nc1ccc2c(c1)OCO2)[C@@H]1[C@@H]2C(=O)N(C3CCCCC3)C(=O)[C@@H]2C2c3ccccc3C=CN21 (some centres undefined),-17,6.9,-15,-2%,-31,
O=C(CCn1c(=O)sc2ccccc21)NC1=NCCS1,1,-0.9,-5,-9%,-77,
CC(C)COC(=O)N1CC(O)CC1C(=O)O (centres undefined),-3,-0.8,-11,-6%,-25,
Cc1ccc2c(c1)C1CN(C)CCC1N2C(=O)c1cccnc1Cl (centres undefined),.,-1.3,-7,.,.,

# Source: PubChem (several laboratories)
